# Screening data as filed in PubChem BioAssay.
# HCMV UL50-53 inh: inhibitors of HCMV UL50-UL53 interaction, biochemical, HTRF; HCMV UL50-UL53 nuclear egress complex (human cytomegalovirus); normalized percent inhibition; inhibition, % (no concentration beside the values); hit rate 0.15% among 190,000;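 active means both replicates at 50% or more, plus weaker picks with an unusually low signal ratio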;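 further: stock transfer was 100 nL into about 20 µL; 0% = negative control wells and 100% = wells with untagged competitor protein; inactives centre near -12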
# GIV Gai3 FP: inhibitors of GIV peptide binding to Galpha-i3, primary screen, biochemical, fluorescence polarization, FITC-GIV GBA peptide, rat Galphai3; Guanine nucleotide-binding protein G(i) subunit alpha-3 (Rattus norvegicus), P08753; 90 min; stronger effect = lower value; scaled: aluminum fluoride 0%, vehicle 100%; percent of control (FP), % (concentration not given with the values); hit rate 0.42% among 210,000;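 active means replicate mean at 85% of control or lower, very high polarization wells dropped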;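 further: wells of about 15 µL received 100 nL stock; the first replicate is given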
# Target sequence (P08753 whole entry, looked up): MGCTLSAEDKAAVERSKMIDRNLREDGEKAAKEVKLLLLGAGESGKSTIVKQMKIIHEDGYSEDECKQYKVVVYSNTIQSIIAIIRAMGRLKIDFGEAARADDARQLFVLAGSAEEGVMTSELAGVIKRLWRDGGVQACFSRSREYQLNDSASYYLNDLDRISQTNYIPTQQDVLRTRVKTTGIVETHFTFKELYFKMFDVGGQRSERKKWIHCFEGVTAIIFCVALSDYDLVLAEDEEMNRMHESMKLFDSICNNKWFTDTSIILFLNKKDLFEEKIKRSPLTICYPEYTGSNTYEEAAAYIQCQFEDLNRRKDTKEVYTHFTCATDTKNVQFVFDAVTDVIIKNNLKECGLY
# Sa growth inh: S. aureus growth inhibition at 42 and 30 °C, primary screen, LtaS inhibitor project, RN4220, two temperatures | OD600, 20 h, 42 °C; stronger effect = lower value | relative growth, % (no concentration beside the values) | hit rate 0.53% among 170,000 | AID 720641, 2013;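 active means growth at 42 °C up to 50% and 20 or more points under that at 30 °C, or under 10% at both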;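 further: 300 nL library stock went into each well; scaled to the means of positive and negative controls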
# Sa growth inh second temp: further read-out of Sa growth inh, marked with its call; relative growth, %; measured here: growth at 30 °C;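 optical density after 20 h as mean of two plates; 100% = untreated growth and lower means inhibition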
# Starred values were filed as active, the others as inactive; . = no result given; & = joins results of further samples.
SMILES,HCMV UL50-53 inh,GIV Gai3 FP,Sa growth inh,Sa growth inh second temp
O=C1CSC(c2ccc(Cl)cc2)N1Nc1nc(Nc2ccccc2)nc(N2CCCCC2)n1 (stereo not given),.,100,94,89
CCc1ccc(CNC(=O)CCn2c(=O)c3cccn3c3ccc(F)cc32)cc1,7,99,105,87
Cn1nnnc1SCC(=O)NC1Cc2ccccc2C1,-12,87,96,82
Cc1cccc(S(=O)(=O)c2cn(C)c3cc(N4CCCCCC4)c(F)cc3c2=O)c1,.,102,107,83
CCCCN(CC)C(=O)Cn1ncc2c3ccccc3n(CCC)c2c1=O,.,108,128,110
O=S(=O)(c1ccc2[nH]c3c(c2c1)CCCCC3)N1CCc2ccccc2C1,-7,108,.,.
O=C1/C(=C/c2cc(Br)cs2)CCC/C1=C\c1cc(Br)cs1,.,103,118,84
CCCCCCSc1n[nH]c(=O)[nH]c1=O,-69,100,99,69
COc1ccc(-c2noc(N3CCC(C(=O)Nc4ccc(F)cc4)CC3)n2)cc1,0,105,.,.
COc1ccccc1C1C2=C(CCCC2=O)N(CC(=O)O)C2=C1C(=O)CCC2,-16,.,114,91
O=C(N1CCN(CCO)CC1)N1c2ccccc2C=Cc2ccccc21,-19,105,96,86
COCCNS(=O)(=O)c1ccc2oc(=O)c3ncn(C)c3c2c1,-21,98,88,90
Cc1ccc(CN2CCC(CNC(=O)Nc3ccccc3)CC2)cc1,-24,102,77,79
CCOC(=O)C1CCN(C(=O)CN2CCN(c3ccccc3O)CC2)CC1,-37,.,81,83
CCn1c(-c2ccc(S(=O)(=O)N3CCOCC3)cc2)csc1=Nc1ccc(C)c(Cl)c1,-51,103,98,85
O=C(Nc1ccc(-c2csc(-c3ccccc3)n2)cc1)c1cccs1,-7,.,120,96
COc1ccc2c(-c3ccccc3)cc3nnnn3c2c1,4,.,86,94
COc1nc(NCc2cccnc2)nc(N2CCSCC2)n1,-27,97,.,.
COc1ccc(C(=O)NCc2cccnc2)cc1S(=O)(=O)N1CCCc2ccccc21,-34,.,97,93
CC1CCN(C(=O)c2ccc3c(c2)NC(=O)CN3)CC1,-42,117,88,86
COc1cc(-c2[nH]c(=S)nc(N)c2C#N)ccc1O,-20,.,93,66
O=C(Nc1sc2c(c1C(=O)c1ccccc1)CCCC2)c1ccco1,-6,111,127,85
CCN(C(=O)C1c2ccccc2Oc2ccccc21)c1ccccc1,.,100,112,90
CCCCNC(=O)CCn1c(=O)c2ccccc2n(Cc2cc(C)ccc2C)c1=O,-8,100,114,92
Cc1cc(NC(=O)C(NC(=O)c2ccc(F)cc2)C23CC4CC(CC(C4)C2)C3)no1 (stereo not given),-6,103,97,99

# Copied from the listing for reference:
SMILES,HCMV UL50-53 inh,GIV Gai3 FP,Sa growth inh,Sa growth inh second temp
COCCNS(=O)(=O)c1ccc2oc(=O)c3ncn(C)c3c2c1,-21,98,88,90
Cc1ccc(CN2CCC(CNC(=O)Nc3ccccc3)CC2)cc1,-24,102,77,79
CCOC(=O)C1CCN(C(=O)CN2CCN(c3ccccc3O)CC2)CC1,-37,.,81,83
CCn1c(-c2ccc(S(=O)(=O)N3CCOCC3)cc2)csc1=Nc1ccc(C)c(Cl)c1,-51,103,98,85
O=C(Nc1ccc(-c2csc(-c3ccccc3)n2)cc1)c1cccs1,-7,.,120,96
COc1ccc2c(-c3ccccc3)cc3nnnn3c2c1,4,.,86,94
COc1nc(NCc2cccnc2)nc(N2CCSCC2)n1,-27,97,.,.
COc1ccc(C(=O)NCc2cccnc2)cc1S(=O)(=O)N1CCCc2ccccc21,-34,.,97,93
CC1CCN(C(=O)c2ccc3c(c2)NC(=O)CN3)CC1,-42,117,88,86
COc1cc(-c2[nH]c(=S)nc(N)c2C#N)ccc1O,-20,.,93,66
O=C(Nc1sc2c(c1C(=O)c1ccccc1)CCCC2)c1ccco1,-6,111,127,85
CCN(C(=O)C1c2ccccc2Oc2ccccc21)c1ccccc1,.,100,112,90
CCCCNC(=O)CCn1c(=O)c2ccccc2n(Cc2cc(C)ccc2C)c1=O,-8,100,114,92
Cc1cc(NC(=O)C(NC(=O)c2ccc(F)cc2)C23CC4CC(CC(C4)C2)C3)no1 (stereo not given),-6,103,97,99

# Later entries:
SMILES,HCMV UL50-53 inh,GIV Gai3 FP,Sa growth inh,Sa growth inh second temp
COc1ccc(C2C(C(=O)Nc3ccccc3)=C(C)Nc3ncnn32)cc1 (stereo not given),1,115,.,.
CC(C)(C)C1CCC(OCC(O)CN2CCCC2)CC1 (stereo not given),-2,.,84,97
O=C1C(Cc2ccc(O)cc2)NC(=S)N1Cc1ccccc1 (stereo not given),7,102,107,69
COc1ccc(/C(O)=C/c2nc3cc(C)ccc3oc2=O)c(OC)c1,-23,54*,90,78
CCOc1cc(C2Nc3ccccc3NC3=C2C(=O)CC(c2ccc(OC)cc2)C3)cc([N+](=O)[O-])c1O (stereo not given),-115,105,.,.
CC1=NNC(=O)C1CC(=O)N/N=C(/C)c1ccccc1 (stereo not given),-17,91,87,84
NC(N)=NS(=O)(=O)c1ccc2[nH]c(=O)oc2c1,-8,107,102,89
CC(C)Cn1c(=O)c2ccccc2n2c(CCC(=O)N3CCN(c4cccc(Cl)c4)CC3)nnc12,-23,100,109,76
N#CCN(CC#N)C(=O)CSc1ccccc1,2,107,108,100
CSCCn1c(-c2ccccc2)cc(C(=O)N2CCCC2)c1C,.,106,113,89
Cc1ccc(-n2c(=O)c3cccnc3n2CC(=O)Nc2ccc(Br)cc2)cc1C,-11&-7,102&100,95,80
O=C(Cc1coc2ccc3ccccc3c12)Nc1cc(C(F)(F)F)ccc1-n1cncn1,-4,.,106,91
COc1ccc(OC)c(NC(=O)CSC2=Nc3ccccc3C3=NC(CCC(=O)NC4CCCCC4)C(=O)N23)c1 (stereo not given),.,101,94,91
CCOc1cc(CNc2ccc(O)cc2)cc(Cl)c1OCc1ccccc1,9,104,65,83
CCC(=O)NCCc1nc2ccccc2n1CC(=O)c1ccccc1,5,105,98,94
COc1ccc(CN2CCN(Cc3ccc4c(c3)OCO4)CC2)cc1,-15,100,.,.
O=C(Oc1ccc(-c2nnco2)cc1)C1CCN(S(=O)(=O)c2ccccc2C(F)(F)F)CC1,-36,.,99,86
Cc1cc(C)nc(Sc2nnc(C)c3ccccc23)n1,-20,106,.,.
Cc1cc(N2CCCC2c2nc3ccccc3s2)n2ncnc2n1 (stereo not given),-6,.,70,83
Cc1cccc(NC(=O)COc2ccccc2-c2nc(-c3ccccc3)no2)c1C,-14,99,.,.
CCOC(=O)CSc1nc2ccc(OCC)cc2[nH]1,16,.,114,107
COc1cccc(NS(=O)(=O)c2ccc3[nH]cc(C(=O)NC4CCCCC4)c(=O)c3c2)c1,2,105,106,58
Cc1cccc(N2C(=O)N(Cc3cccc(C#N)c3)c3ccccc3S2(=O)=O)c1,.,105,101,105
O=C(O)COc1cc(C(F)(F)F)cc(C(F)(F)F)c1,-18,.,97,96
CC(C)(C)c1ccc(-c2nc3nc(CN4CCc5ccccc5C4)cc(=O)n3[nH]2)cc1,-28,106,.,.

# The results go on.
SMILES,HCMV UL50-53 inh,GIV Gai3 FP,Sa growth inh,Sa growth inh second temp
Cc1ccc(NC(=O)/C(C#N)=N/Nc2ccc(C(=O)O)cc2)c(C)c1,-94,.,80,85
Cc1cccc(Nc2c3c(nc4nncn24)CCC3)c1C,5,105,101,92
O=C(Cn1ccn2nc(-c3ccc4c(c3)OCO4)cc2c1=O)N1CCCc2ccccc21,0,103,.,.
CC(=O)Nc1ccc(NC(=O)CCCn2nc(C)c3sc4ccccc4c3c2=O)cc1,-17,106,120,87
Cc1ccc(Nc2nnc(-c3ccc(C)c(S(=O)(=O)N4CCN(C)CC4)c3)c3ccccc23)c(C)c1,4,109,114,94
Cc1ccc(NC(=O)CN2C(=O)CCc3cc(S(=O)(=O)N4CCCCC4)ccc32)cc1C,.,110,108,100
CC(NS(=O)(=O)c1ccccc1C#N)C1CC2CCC1C2 (stereo not given),-11,.,89,107
COc1ccc(C2=CC(c3ccccc3)SC(N)=N2)cc1 (stereo not given),-18,.,94,94
COc1cc(C(=O)N2CCn3c(C)ccc3C2C)cc(OC)c1OC (stereo not given),-5,149,87,86
NC(=O)C1CCN(C2=NS(=O)(=O)c3ccccc32)CC1,-20,.,85,94
Cc1cc(NC(=O)c2cc(Cl)ccc2Cl)ccc1-c1cc2ccccc2oc1=O,9,104,104,101
Cc1cc(F)ccc1NS(=O)(=O)c1ccc(-n2cccn2)cc1,.,106,71,85
CCC1(C)Cc2c(C#N)c(N)sc(=S)c2CO1 (stereo not given),.,96,83,69
CCOC(=O)c1cc2occc2n1C(C)C(=O)OCC (stereo not given),-4,128,111,91
Cc1ccc(C(c2c(O)cc(C)n(Cc3ccco3)c2=O)N2CCC(C)CC2)cc1 (stereo not given),.,94,107,82
Cc1cccc(NC(=O)c2cnc(N3CCN(c4ncccn4)CC3)c3ccccc23)n1,-72,104,.,.
O=C1CC(C(=O)Nc2ccccc2)C2(CCCC2)O1 (stereo not given),4,103,101,88
NC(=O)CSCC(=O)Nc1ccccc1F,-10,107,126,102
O=C(NCCc1ccccc1)C1CCN(Cc2cnn(-c3ccccc3)c2-n2cccc2)CC1,-20,100,94,89
COc1ccc2c(C)cc(=S)[nH]c2c1,-25,.,90,100
COc1cc2nc(SCC(=O)NC3CC3)n(CCC3=CCCCC3)c(=O)c2cc1OC,-19,.,81,85
Cn1ncc(SCC(=O)O)c(Cl)c1=O,-27,99,94,92
CCc1ccc(C(=O)c2c(S(=O)(=O)CC)c(S(=O)(=O)CC)c3cc(C(C)(C)C)ccn23)cc1,-6,.,120,93
O=c1cc(-c2ccccc2)[nH][nH]1,-6&-12,98,114&58,67&60
O=S(=O)(c1ccccc1)N1CCN(C(c2ccccc2)c2ccccc2)CC1,-7,.,71,90

# The list goes on:
SMILES,HCMV UL50-53 inh,GIV Gai3 FP,Sa growth inh,Sa growth inh second temp
N#CC1(C(=O)O)CCCC1,-20,.,84,93
Cc1oc2ccc(O)c(CN(C)Cc3ccccc3)c2c1C(=O)NCc1ccccc1,-12,102,74,58
CC(C)(C)OC(=O)N1CCC(c2c(C(=O)N3CCN(c4cccc(Cl)c4)CC3)cnn2-c2cccc(Cl)c2)CC1,.,107,117,99
Brc1ccc(-c2nnc3sc(CNCc4ccc5c(c4)OCO5)cn23)cc1,.,106,111,90
O=c1[nH]cc(N=Cc2ccncc2)c(=O)[nH]1,.,100,86,98
CC(C)NC(=O)c1cccc(Cl)c1,-8,.,100,87
Cc1ccc(OC(=O)C23CC4CC(CC(C4)C2)C3)cn1,5,106,104,78
COCC(=O)N(Cc1cc2cc3c(cc2nc1Cl)OCO3)CC1CCCO1 (stereo not given),10,100,95,97
Cc1cc(NC(=O)NCC(O)c2ccccc2)c(C(F)(F)F)o1 (stereo not given),-25,101,88,88
N#Cc1ccc(Oc2ccc(F)cc2)cc1,-14,102,.,.
CCOc1ccccc1C(=O)NCC(=O)N1CCC(C)CC1,-19,.,96,95
COc1cc(CN2CCC(Cc3ccccc3)CC2)cc(OC)c1O,2,109,95,104
O=c1c2ccccc2n2c(-c3cc(Cl)ccc3O)nnc2n1Cc1ccccc1,-16,97,.,.
COc1ccc(N2CCN(C(=O)N3c4ccccc4Sc4ccccc43)CC2)cc1,-9&-19,109&98,104,85
CCn1ccc2cc(S(=O)(=O)N3CCCC(C(=O)N4CCc5ccccc5C4)C3)ccc21 (stereo not given),-16,104,.,.
CCOc1ccc(C2c3c(oc4ccc(C)cc4c3=O)C(=O)N2CCCN2CCOCC2)cc1 (stereo not given),.,98,107,91
COc1ccc2c(c1)c1ncn(CCN3CCN(Cc4ccccc4)CC3)c(=O)c1n2C,-15&-11,106&100,101,97
Cc1ccc2[nH]cc(CCNC(=O)CN3CCCn4nc(C)cc43)c2c1,-9,102,88,85
O=c1cc(O)c2c(n1-c1ccccc1)CCCCC2,-18,99,85,90
CCN(CC)C(=O)Cn1c(=O)cc(C)c2c(C)nn(-c3cccc(F)c3)c21,-25,103,90,73
O=S(=O)(c1ccc(F)cc1)n1cccc1,-29,103,82,107
CC(=O)N1C(=O)CC(C)N(C(C)=O)c2ccccc21 (stereo not given),-7,.,94,93
Cc1cc(C(=O)COC(=O)/C=C/c2cccs2)c(C)n1C1CC1,-28,.,78,96
CC(C)(C)OC(=O)N1CCCN(S(=O)(=O)c2ccc3c(c2)CCO3)CC1,-14,105,93,87
O=C(CCn1cnc2onc(-c3ccc(F)cc3)c2c1=O)N1CCCCCC1,3,98,103,109

# Following part.
SMILES,HCMV UL50-53 inh,GIV Gai3 FP,Sa growth inh,Sa growth inh second temp
CC1CC2=C(CC1(CO)CO)C(C)(C)CCC2 (stereo not given),-6,.,105,105
CN(C)c1ccc(NC(=S)c2ccccn2)cc1,-34,105,89,75
CSc1nccc(-c2c(-c3ccc(Cl)cc3)noc2C)n1,-28,97,100,87
O=C(c1cnccn1)N(c1ccccc1)C1(C(=O)NC2CCCCC2)CCCCC1,-30,103,84,87
O=C(CCC(=O)N1CCc2cc(S(=O)(=O)N3CCCC3)ccc21)N1CCCCC1,-34,101,.,.
CCOC(=O)c1c[nH]c2c(F)cc(F)cc2c1=O,-10,105&96,132,91
N#Cc1c(N)nc2c3c1NC(O)(c1ccccc1)C(C#N)C3c1cc(Br)ccc1O2 (stereo not given),-18,100,93,71

# No enrichment for hits. About 0.85% of those tested had a hit in this group.
